Cruzain noTriton: qHTS Assay for Promiscuous and Specific Inhibitors of Cruzain (without detergent) | Cruzipain (Trypanosoma cruzi), P25779 | purified cruzain, Z-FR-AMC fluorescence, no detergent | Potency, µM, for inactives: max response, negative = inhibition, usual class: inhibitors | actives 2.3% (n = 200,000);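 further: plate controls were enzyme without inhibitor for no effect and buffer without enzyme for full effect; nearly all actives have a fitted effect of over 40% in size; top concentration of the series not given in the record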
Target sequence (P25779 123-467 limits assumed): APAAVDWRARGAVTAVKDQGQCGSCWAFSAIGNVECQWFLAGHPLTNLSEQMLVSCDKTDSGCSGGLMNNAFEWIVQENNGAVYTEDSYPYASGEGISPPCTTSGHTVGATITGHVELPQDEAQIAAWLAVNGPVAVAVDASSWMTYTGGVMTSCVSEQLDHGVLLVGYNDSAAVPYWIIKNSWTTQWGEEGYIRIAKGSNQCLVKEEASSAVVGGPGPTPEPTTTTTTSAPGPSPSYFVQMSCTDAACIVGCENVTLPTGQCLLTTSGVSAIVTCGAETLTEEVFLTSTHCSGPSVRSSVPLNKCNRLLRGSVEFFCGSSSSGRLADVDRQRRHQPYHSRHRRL
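Detergent-free condition (0.00005% Triton X-100) in acetate buffer pH 5.5 with DTT. 1.5 nM enzyme and compound were pre-mixed 15 min, then 2 uM Z-FR-AMC substrate added; reaction progress from fluorescence change between first and third reads (60 s).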
Cruzain Triton: qHTS Assay for Promiscuous and Specific Inhibitors of Cruzain (with detergent) | AID 1478, 2009 | Potency, µM, for the others: max response, negative = inhibition, hits mostly inhibitors | purified cruzain, Z-FR-AMC fluorescence, 0.01% Triton | Cruzipain (Trypanosoma cruzi), P25779 | actives 0.43% (n = 200,000);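 further: plate controls were neutral wells for no effect and buffer without enzyme for full effect; nearly all actives have a fitted effect of over 40% in size; top concentration of the series not given in the record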
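15 min RT preincubation of 1.5 nM cruzain with compound, then 2 uM Z-FR-AMC added; kinetic AMC fluorescence, 60 s delta. Triton X-100 0.01%, pH 5.5.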
NS1 function inh: qHTS Assay for Inhibitors of Influenza NS1 Protein Function | S. cerevisiae slowed by influenza A NS1, growth recovery by OD600 | Potency, µM (titrated, usually from 46.1 µM), inactives show at the top dose activity, positive = more growth | actives 0.4% (n = 270,000); active means well fitted rising curve with a large enough effect; inconclusive means small, poorly fitted or top-dose-only effect; inactive means no such curve, though single readings can be large or run the other way; further: nearly all actives have a fitted effect of over 50% in size
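A cell-based growth assay was used: compounds that relieve NS1-induced slow growth of budding yeast raise OD600. Assay medium was yeast nitrogen base with ammonium sulphate and -URA supplement, pH 6.0, with 2% galactose.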
StopGo reporter: High Throughput Screening for Foot and Mouth Disease Virus Antivirals. human cells with a luciferase reporter of 2A StopGo recoding; control for the full effect not named in the record. Potency, µM (doses to about 57.9 µM), inactives show at the top dose signal change, negative = less light. actives 1.2% (n = 410,000); active = well fitted falling curve with a large enough effect; inconclusive = small, poorly fitted or top-dose-only effect; inactive = no such curve, though single readings can be large or run the other way; tested in HEK293T cells; further: on the % scale 0 is the no-effect control and ±100 the full control effect; nearly all actives have a fitted effect of over 45% in size; luciferase light after 4 h
SARS PLP yeast: qHTS of Yeast-based Assay for SARS-CoV PLP. Potency, µM (series often up to 32.9 µM), for inactives: at the top dose activity, positive = growth rescue. S. cerevisiae expressing SARS-CoV PLpro, growth rescue; control for the full effect not named in the record. actives 0.19% (n = 330,000); active means well fitted rising curve with a large enough effect; inconclusive means small, poorly fitted or top-dose-only effect; inactive means no such curve, though single readings can be large or run the other way; further: 0% is about no effect; nearly all actives have a fitted effect of over 55% in size; growth read by luminescence after 48 h
RE007 growth inh: qHTS Assay for Inhibitors of the HIV-1 protein Vpr; actives 0.21% (n = 360,000); Potency, µM (titrated, usually from 92.2 µM), for the others: top-dose activity change, negative = less growth; S. pombe RE007 Vpr strain, BacTiter-Glo ATP luminescence, 24 h; control for the full effect not named in the record; active = well fitted falling curve with a large enough effect; inconclusive = small, poorly fitted or top-dose-only effect; inactive = no such curve, though single readings can be large or run the other way;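 further: on the % scale 0 is the no-effect control and ±100 the full control effect; nearly all actives have a fitted effect of over 50% in size; the assay follows cell death caused by Vpr and the record does not say whether a fall means rescue or toxicity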
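Fission yeast strain RE007, carrying one chromosomally integrated HIV-1 vpr copy, was seeded at OD 0.01 in PMG+AL medium with 23 nL pinned compound. After 24 h at 30 °C and 99% humidity, viability was read by BacTiter-Glo luminescence.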
MARV entry inh: qHTS for inhibitors of binding or entry into cells for Marburg Virus | actives 1.8% (n = 300,000) | Marburg virus pseudotyped entry inhibition, cell reporter; control for the full effect not named in the record; about a third of the inactives were read at about 46 µM | Potency, µM (series often up to 37.8 µM), without a hit: at the top dose activity change, negative = inhibition, usual class: inhibitors; active = well fitted inhibition curve with a large enough effect; inconclusive = small, poorly fitted or top-dose-only effect, or effect the other way; inactive = flat fitted curve, though single readings scatter; tested in HEK293 cells; about a fifth of its hits are not listed in these tables; further: on the % scale 0 is the no-effect control and ±100 the full control effect; luciferase read-out
Lassa entry inh: qHTS for Inhibitors of binding or entry into cells for Lassa Virus. actives 1.2% (n = 300,000). AID 540256, 2011. Potency, µM (doses to about 37.9 µM), without a hit: at the highest dose activity change, negative = inhibition, most hits filed as inhibitors. Lassa virus pseudotype entry inhibition, cell reporter; control for the full effect not named in the record; active means well fitted inhibition curve with a large enough effect; inconclusive means small, poorly fitted or top-dose-only effect, or effect the other way; inactive means flat fitted curve, though single readings scatter; tested in HEK293 cells; further: on the % scale 0 is the no-effect control and ±100 the full control effect; nearly all actives have a fitted effect of over 50% in size; luciferase read-out
Numbers without * were called inactive; ? = inconclusive; · = no result given; & = joins results of further samples; [ ] = remark or other dose. Unless noted, the call rests on the fitted dose curve; in most records, active means well fitted curve in the direction sought with a large enough effect; inconclusive means small, poorly fitted or top-dose-only effect, or another doubt; inactive means no such curve, though single readings can be large; an effect the other way counts as inactive or inconclusive. Potency means the concentration at half of the fitted maximal effect.

SMILES	Cruzain noTriton	Cruzain Triton	NS1 function inh	StopGo reporter	SARS PLP yeast	RE007 growth inh	MARV entry inh	Lassa entry inh
Cc1ccc(N2CCN(S(=O)(=O)c3ccc4c(c3)n(C)c(=O)c(=O)n4C)CC2C)cc1 (stereo not drawn)	?	-1.5%	4.2%	-13.1%	6.3%	-5.5%	-13.4%	2.1%
Oc1ccc(C2=Nn3c(nnc3-c3ccco3)SC2)cc1O	-15.0%	-17.3%	25.4%	0.0%	-7.0%	10.9%	?	-23.0%
COc1ccc2c(c1OC)C(=O)OC2c1c(O)nc(SC)n(-c2ccccc2)c1=O (stereo not drawn)	-20.8%	0.5%	27.2%	3.3%	-3.6%	-0.4%	-11.3%	-21.5%
COc1ccc(NC(=O)CN(C)C(=O)c2ccccc2OC)cc1	·	·	1.5%	9.5%	-0.9%	18.0%	14.0%	?
Cc1nc2nc(C)c(CCC(=O)NCCCN3CCN(c4cccc(Cl)c4)CC3)c(C)n2n1	-0.4%	-0.4%	3.6%	-26.3%&-2.2%	10.9%&-0.1%	-23.6%&-22.0%	-13.4%	9.3%
CCOC(=O)N1CCN(C(=O)C2CCCN(Cc3nc(-c4ccc(Cl)cc4)oc3C)C2)CC1 (stereo not drawn)	-9.2%	0.7%	-0.5%	?	-2.3%	-20.4%	·	·
N#CCN1CCC(c2cc(-c3ccco3)n[nH]2)CC1	·	·	·	-0.6%	1.3%	-1.7%	-0.9%[46.1 µM]	8.1%
COc1ccc(CCNC(=O)CC2SC(=NCCc3ccccc3)NC2=O)cc1OC (stereo not drawn)	-1.4%	-9.6%	13.6%	0.0%	5.0%	-3.4%	0.4%[46.1 µM]	-23.4%
Cc1ccc(NC(=O)CCC2CC(C)(C)OC2=O)cc1 (stereo not drawn)	·	·	·	-0.9%	16.1%	-20.7%	14.2%	-0.4%[46.1 µM]
CC(C)(C)c1nn(-c2ccccc2)c2[nH]c(=O)c(CNCc3ccc4c(c3)OCO4)cc12	-0.6%	6.0%	-10.4%	·	-7.9%	-14.3%	?	?
CCOC(=O)c1ccc2[nH]c3c(c2c1)CCCC3C(=O)OCC (stereo not drawn)	3.5%	-9.3%	-16.6%	-1.1%	-22.4%	-9.5%	-4.5%	-9.3%
C#CCOC(=O)Nc1cc(C)n(-c2ccccc2)n1	·	·	-2.8%	7.6%	1.1%	16.3%	·	·
COc1cccc(N2CCN(C3OC(=O)c4ccccc43)CC2)c1 (stereo not drawn)	13.8%	11.5%	-4.9%	-20.6%	3.1%	-12.3%	7.3%	1.1%
Cc1cccc(NC(=O)C2CCCN(S(=O)(=O)c3ccc(-n4cnnn4)cc3)C2)c1 (stereo not drawn)	·	·	-6.9%	-1.8%	1.6%	-5.3%	?	-20.1%[46.1 µM]
Cc1cccc(C)c1OCC(N)C(C)C (stereo not drawn)	4.0%	-3.9%	-5.2%	-16.6%	·	-11.5%[18.4 µM]	?	-0.6%
COc1ccc(NC(=O)CN2C(=O)C(=O)c3ccccc32)c(OC)c1	2.7%	-0.9%	·	-11.3%	·	·	8.3%[46.1 µM]	-11.7%[46.1 µM]
O=C(NNS(=O)(=O)c1ccc(Cl)cc1)c1cc(-c2ccccc2)n[nH]1	·	·	-0.9%	-6.4%	1.5%	10.8%	28.2%[46.1 µM]	18.8%
CC(=O)N1CCc2c(sc3c2c(=O)n(-c2ccccc2)c(=O)n3CC(=O)c2ccc(Cl)cc2)C1	0.5%	-0.4%	·	-22.7%	·	·	-29.9%[46.1 µM]	·
COc1ccccc1Oc1ccc(NC(=O)c2ccc(Cl)cc2)cc1	·	·	5.7%	?	0.4%	-1.9%	-14.3%	-3.5%
CC1=C(C(=O)Nc2cc(Cl)ccc2C)C(c2cccs2)n2ncnc2N1 (stereo not drawn)	-6.1%	-2.7%	·	-19.6%	·	·	·	?
Cc1ccc(S(=O)(=O)c2c(N)n(NC(=O)c3ccco3)c3nc4ccccc4nc23)cc1	5.1%	-11.4%	-70.7%	5.2%	-3.3%	1.9%	12.6%	-10.7%
O=C(O)/C(=C\c1ccc(Cl)cc1)c1ccc(F)cc1	·	·	-3.5%	-9.5%	-3.4%	-10.3%	-0.9%[46.1 µM]	-1.4%
Cc1cc(C(=O)N/N=C/c2ccccn2)c2ccccc2n1	·	·	-11.8%	3.5%	4.8%	1.2%	12.2%[46.1 µM]	-2.8%[46.1 µM]
COc1cc(NC(=O)Cn2c(=O)n(Cc3ccco3)c(=O)c3sc4ccccc4c32)cc(OC)c1	4.6%	-5.7%	·	0.0%	·	·	?	22.0%[46.1 µM]
CCOc1ccc(S(=O)(=O)Nc2nc3ccccc3nc2N2CCN(C)CC2)cc1	-6.5%	-2.7%	-62.3%	3.8%	8.1%	-1.0%	0.2%	22.7%
CC(=O)Nc1ccc(C(=O)CSc2ncn(-c3ccccc3)n2)cc1	-2.0%	-6.6%	1.5%	28.6%	-6.1%	0.8%	0.0%	-8.6%
COCCn1c(-c2ccc(OC)c(OC)c2)nc2ccccc21	1.4%	0.3%	-0.7%	5.0%	-0.8%	3.6%	4.3%[46.1 µM]	?
CCOC(=O)c1ccc2c(c1)C1C=CCC1C(C(=O)OCC)N2 (stereo not drawn)	·	·	18.8%	5.5%	-0.4%	1.4%	1.0%[46.1 µM]	11.8%[46.1 µM]
CC(C)c1nnc(NC(=O)c2cnccn2)s1	-7.8%	0.3%	-10.3%	0.0%	4.3%	-17.2%	16.9%	-0.2%
Cc1oc(-c2ccccc2Cl)nc1CN1CCCCC1c1cccnc1 (stereo not drawn)	·	·	3.6%	-5.0%	-0.1%	-25.2%	·	·

Part of the list above, with each value named.
> COc1cc(NC(=O)Cn2c(=O)n(Cc3ccco3)c(=O)c3sc4ccccc4c32)cc(OC)c1
  Cruzain noTriton = 4.6% | Cruzain Triton = -5.7% | NS1 function inh = · | StopGo reporter = 0.0% | SARS PLP yeast = · | RE007 growth inh = · | MARV entry inh = ? | Lassa entry inh = 22.0%[46.1 µM]
> CCOC(=O)c1ccc2c(c1)C1C=CCC1C(C(=O)OCC)N2 (stereo not drawn)
  Cruzain noTriton = · | Cruzain Triton = · | NS1 function inh = 18.8% | StopGo reporter = 5.5% | SARS PLP yeast = -0.4% | RE007 growth inh = 1.4% | MARV entry inh = 1.0%[46.1 µM] | Lassa entry inh = 11.8%[46.1 µM]

Part of the list above, reduced to Cruzain noTriton and SARS PLP yeast.
Molecule | Cruzain noTriton | SARS PLP yeast
Cc1cc(C(=O)N/N=C/c2ccccn2)c2ccccc2n1 | · | 4.8%
COc1cc(NC(=O)Cn2c(=O)n(Cc3ccco3)c(=O)c3sc4ccccc4c32)cc(OC)c1 | 4.6% | ·
Cc1oc(-c2ccccc2Cl)nc1CN1CCCCC1c1cccnc1 (stereo not drawn) | · | -0.1%
CCOc1ccc(S(=O)(=O)Nc2nc3ccccc3nc2N2CCN(C)CC2)cc1 | -6.5% | 8.1%
O=C(O)/C(=C\c1ccc(Cl)cc1)c1ccc(F)cc1 | · | -3.4%
C#CCOC(=O)Nc1cc(C)n(-c2ccccc2)n1 | · | 1.1%

The results go on.
SMILES	Cruzain noTriton	Cruzain Triton	NS1 function inh	StopGo reporter	SARS PLP yeast	RE007 growth inh	MARV entry inh	Lassa entry inh
CC(=O)Nc1nonc1NC(=O)CSC1=NCCS1	8.1%	4.9%	-7.6%	-5.4%	1.7%	3.0%	-3.8%[46.1 µM]	10.8%
CCOC(=O)c1ccc(-n2c(C)nc3c(cnn3-c3ccccc3Cl)c2=O)cc1	4.4%	-2.2%	-16.2%	-27.1%	-2.0%	9.9%	3.7%	?
Cc1ccccc1NC(=O)C1CCC(C)(C(=O)O)C1(C)C (stereo not drawn)	-7.7%	2.6%	4.1%	0.0%	2.2%	-15.8%	?	3.2%
Cc1c(O)ccc2c(CC(=O)N[C@@H](Cc3c[nH]c4ccccc34)C(=O)O)cc(=O)oc12	·	·	2.6%	-1.6%	-0.1%	-2.8%	25.8%[46.1 µM]	8.7%[46.1 µM]
CN1CCN(c2nc3c(c(=O)[nH]c(=O)n3C)n2CCOc2ccccc2)CC1	-5.8%	6.2%	2.8%	0.0%	14.8%	-0.4%	21.2%	9.1%
Cc1ccccc1Cn1c(SCc2ccc(C(=O)N3CCCCC3)cc2)nc2ccncc21	1.3%	-6.6%	·	-24.2%	·	·	-19.4%[46.1 µM]	·
CCN(CC)CCNC(=O)c1ccc(CSc2nc3ccncc3n2Cc2cccc(F)c2)cc1	-5.8%	-7.5%	·	3.9%	·	·	-8.7%[46.1 µM]	24.1%[46.1 µM]
COc1ccc(-n2c(SCC(=O)Nc3cc(C)on3)nc3c(c2=O)SCC3)cc1	4.9%	-14.8%	-40.7%	-27.0%	17.1%	-5.4%	·	·
COc1ccc(-c2ccnc3c(C(=O)O)cnn23)cc1	·	·	·	-6.5%	1.3%	10.8%	2.5%[46.1 µM]	17.8%[46.1 µM]
O=C(CNCc1ccc(F)cc1)Nc1ccccc1[N+](=O)[O-]	·	·	·	15.6%	-0.2%	-5.0%	?	1.5%
Cc1ccc(S(=O)(=O)N2CCN(CCOc3c(Cl)cccc3Cl)CC2)cc1C	·	·	·	4.0%	1.7%	-12.6%	-5.9%	3.7%
Cc1cccc(NC(=O)CSc2ncnc3sc(C)c(C)c23)n1	·	·	-14.3%	-29.3%	-7.3%	-17.7%	-5.1%	-16.6%
O=C(Nc1ccccc1C(=O)OCc1nnc(-c2ccccc2)o1)c1ccco1	-4.6%	-8.9%	-34.0%	62.4%[activator]	0.1%	11.1%	-6.9%	-2.9%
CCc1nnc(NS(=O)(=O)c2ccc(N=Cc3c(C)[nH]n(-c4ccc(C)cc4)c3=O)cc2)s1	?	-17.2%	2.8%	·	-21.9%	?	13.1%	-6.4%

Source: PubChem (National Center for Advancing Translational Sciences (NCATS))
